Bioassay records: PubChem, several laboratories
FGF22 binding: binders of human FGF22 protein, primary screen, FGF22 synaptogenesis inhibitor project, biophysical, thermal shift, single point; Fibroblast growth factor 22 (Homo sapiens), Q9HCT0; recombinant FGF22 thermal shift, SYPRO orange fluorescence; percent of sucrose octasulfate shift, DMSO zero; calls only at 9.99 µM; 340,000 compounds, 1.5% hits;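 active = melting point raised past a set limit in the mean and every replicate; three in four hits are not shown here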
B2AR ag: beta2AR agonists driving receptor internalization, primary screen, cell-based, FAP fluorogen, flow cytometry; Am2.2-beta2AR cells; reference of the scale not given here; response, % (no concentration beside the values); 340,000 compounds, 0.43% hits;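 active = response above a set limit, near 3 SD of response in nonfluorescent compounds, cut at about 42% in these data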;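 note: stock transfer was 100 nL into about 11 µL; a reference agonist was the positive control; negative values mostly stem from fluorescent compounds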
Target sequence (P07550 whole entry, looked up): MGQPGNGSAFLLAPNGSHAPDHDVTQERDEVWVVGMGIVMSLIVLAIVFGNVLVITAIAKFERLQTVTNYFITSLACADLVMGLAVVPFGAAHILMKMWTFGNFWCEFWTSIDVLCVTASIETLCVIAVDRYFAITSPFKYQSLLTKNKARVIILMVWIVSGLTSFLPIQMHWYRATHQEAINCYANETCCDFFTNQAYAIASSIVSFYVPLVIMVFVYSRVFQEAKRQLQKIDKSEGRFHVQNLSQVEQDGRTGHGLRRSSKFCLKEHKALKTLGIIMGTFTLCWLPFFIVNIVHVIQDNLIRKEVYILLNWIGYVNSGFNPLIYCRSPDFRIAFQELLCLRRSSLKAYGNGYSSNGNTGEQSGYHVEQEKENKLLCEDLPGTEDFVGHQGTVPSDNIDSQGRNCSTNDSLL
HNF4A DNA FP: change in binding of human HNF4A to DNA, primary screen, biochemical, fluorescence polarization, FITC-DNA | 1 h | activity change, % at 10 µM | 360,000 compounds, 0.3% hits | AID 1224865, 2016; in the data active = activity change above about 30%, passing the limit was not always enough;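 note: controls were the assay level and a saturating level of protein; the project sought stronger binding though the title names inhibitors; some compounds called inactive have numbers as strong as hits; positive values seem to mean higher polarization but the record does not say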
Target sequence (P41235 whole entry, looked up): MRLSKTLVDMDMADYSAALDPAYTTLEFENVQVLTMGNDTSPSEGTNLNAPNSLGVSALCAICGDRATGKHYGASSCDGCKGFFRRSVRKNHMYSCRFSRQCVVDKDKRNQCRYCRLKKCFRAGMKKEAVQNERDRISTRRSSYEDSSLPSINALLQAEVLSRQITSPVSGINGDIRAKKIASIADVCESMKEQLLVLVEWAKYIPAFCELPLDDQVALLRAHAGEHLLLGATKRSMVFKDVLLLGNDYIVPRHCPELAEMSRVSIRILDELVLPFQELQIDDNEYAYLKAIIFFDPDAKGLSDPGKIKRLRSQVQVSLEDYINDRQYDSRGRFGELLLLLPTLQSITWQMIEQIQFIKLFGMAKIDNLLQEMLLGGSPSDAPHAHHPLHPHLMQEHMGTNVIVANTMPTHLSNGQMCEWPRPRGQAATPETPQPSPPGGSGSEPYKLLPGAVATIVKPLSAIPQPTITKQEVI
UCH37 DUB inh: inhibitors of human UCH37 deubiquitinase, primary screen, biochemical, Ub-AMC cleavage, fluorescence. Ubiquitin carboxyl-terminal hydrolase isozyme L5 (Homo sapiens), Q9Y5K5. purified proteasome/UCH37. inhibition, % (concentration not given with the values). 330,000 compounds, 0.33% hits;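 active = mean of two replicates above 20%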;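 note: 0% = compound-free wells with enzyme and 100% = wells lacking proteasome; stock transfer was 100 nL into about 20 µL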
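assay system = human UCH37 enzyme supplied as purified proteasome complex | amount = proteasome at 0.15 nM in the dispensed enzyme solution | schedule = 30 min compound-proteasome preincubation then 25 min substrate reaction, room temperature | measured by = fluorescence, ex 355 nm, em 460 nm | benchmarks = no-proteasome wells (full inhibition) and compound-free wells (no inhibition)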
LANA-H2A inh: blockers of LANA interaction with H2A/H2B – biochemical, FP readout, HTS, primary screen; Protein LANA1 (Human herpesvirus 8 type P (isolate GK18)), Q9QR71; cell-free LANA-H2A/H2B peptide, fluorescence polarization; inhibition, % (concentration not given with the values); 320,000 compounds, 0.6% hits; AID 2629, 2010; in the data active = inhibition mostly above about 10%, no sharp cut-off; inactive = mostly below about 6.7%;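 note: stock transfer was 7.5 nL into about 10 µL; 0% = median of vehicle wells and 100% = median of positive control wells; one replicate is shown; the record names a cut of 25% in any replicate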
ALR H2O2 inh: inhibitors of human ALR sulfhydryl oxidase, primary screen, biochemical, H2O2 detection, HRP-luminol luminescence, single point | purified ALR, DTT oxidation | 290,000 compounds, 3.8% hits | inhibition, % (test concentration not listed);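 active = mean and each replicate at 75% or more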;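 note: stock transfer was 7.5 nL into about 7.5 µL; 0% = neutral wells and 100% = wells with inactivated enzyme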
Target sequence (P55789 whole entry, looked up): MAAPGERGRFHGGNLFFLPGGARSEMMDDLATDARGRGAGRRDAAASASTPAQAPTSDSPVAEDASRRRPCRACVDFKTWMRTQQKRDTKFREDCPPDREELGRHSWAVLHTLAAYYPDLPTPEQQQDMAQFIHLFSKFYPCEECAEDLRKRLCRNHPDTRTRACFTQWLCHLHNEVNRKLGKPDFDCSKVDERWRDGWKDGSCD
Ecoli growth: E. coli growth inhibition, primary screen, OD600; Escherichia coli growth, 23 h; stronger effect = lower value; OD600 absorbance (concentration not given with the values); 330,000 compounds, 0.21% hits; AID 1053175, 2014;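 active = OD600 absorbance below the run mean of sample wells minus 3.6 SD, in any replicate, cut at about 0.56 in these data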;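 note: stock transfer was 300 nL into about 60 µL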
* = called active by the depositor; i = inactive; . = not tested or not shown.

SMILES	FGF22 binding	B2AR ag	HNF4A DNA FP	UCH37 DUB inh	LANA-H2A inh	ALR H2O2 inh	Ecoli growth
Cc1ccc(NC(=O)C2CCN(S(C)(=O)=O)CC2)c(C)c1	i	-1.1	8.4	1.2	-0.9	-3.5	0.661
COc1ccc(NC(=O)Cn2nnc(-c3ccccc3NS(=O)(=O)c3ccccc3)n2)cc1	.	-1.9	1.5	7.6	-4.0	-1.0	0.659
CCCC1=C/C(=C/c2ccc(-c3ccccc3OC)o2)C(=O)O1	i	6.5	7.7	-70.3	-6.1	7.7	0.683
CCOc1ccc(NC(=O)CC2S/C(=N/N=C3CCCCCC3)NC2=O)cc1 (stereo unspecified)	i	-7.5	2.7	2.4	-3.7	-3.1	0.703
O=C(Cc1n[nH]c(=O)c2ccccc12)NCc1ccc(Cl)cc1	i	0.0	-4.2	1.0	1.8	.	0.654
COc1ccc(/C=C/C(=O)Oc2ccc(C)cc2)cc1	i	-1.2	-0.4	1.8	2.3	1.1	0.699
Cn1c(CC(=O)NNC(=O)c2cccnc2)nc2ccccc21	i	0.3	5.3	1.9	18.6*	.	0.645
Cc1ccc(S(=O)(=O)N(C)c2ccc(OCC(=O)N3CCCCC3)cc2)cc1	i	2.1	1.8	-0.6	-4.3	-3.8	0.661
CC(OC(=O)C1=COCCO1)C(=O)Nc1ccc(Cl)cn1 (stereo unspecified)	i	5.7	0.1	4.0	3.9	.	0.621
Cc1nc2ccccc2n1CC(O)Cn1c(C(F)(F)F)nc2ccccc21 (stereo unspecified)	.	-10.3	-1.5	5.8	6.8	-3.3	0.738
Cc1ccc(CNC(=O)COC(=O)c2cnc(C)cn2)cc1	.	1.2	-0.9	5.2	-4.1	-1.1	0.689
O=C(O)c1cccc(S(=O)(=O)Nc2ccccc2C(=O)NCCc2ccccc2)c1	i	8.9	5.7	1.0	1.1	-4.6	0.642
COc1cccc(C2CN(c3ccc(F)cc3F)N=C2c2cccs2)c1OC (stereo unspecified)	.	-8.9	2.6	i	1.4	-2.4	0.713
O=C(CSc1nc(-c2cccs2)cc(C(F)(F)F)n1)NCCCN1CCOCC1	.	-15.6	4.7	3.8	-0.2	-23.4	0.679
CN(C)CCCN(C(=O)c1sc2ccccc2c1Cl)c1nc2ccc(F)cc2s1	.	37.6	-0.9	1.0	-2.1	-16.9	0.682
CS/C(=N\S(=O)(=O)c1ccc(N)cc1)NS(=O)(=O)c1cccs1	.	5.2	-1.1	.	-3.5	-1.4	.
O=C(O)CSc1nc(SCc2ccccc2Cl)nc2c1CCCC2	.	-6.3	-6.6	2.7	3.2	94.7*	0.662
Cc1ccccc1OCC(=O)N(Cc1nnc(-c2ccc(Cl)cc2)o1)C(C)C	i	-10.4	5.5	0.9	-2.9	-3.7	0.71
CN(Cc1ccccc1)C(=O)c1ccc(NC(=O)C2CCN(C(=O)OC(C)(C)C)CC2)cc1	i	6.3	2.4	-2.5	2.5	-0.9	0.654
COc1ccc(NC(=O)Nc2cccs2)cn1	i	-2.3	0.8	1.5	-0.1	-10.1	0.655
O=C(O)C(NS(=O)(=O)c1cccc2nsnc12)c1ccccc1 (stereo unspecified)	i	-1.4	1.3	1.8	0.6	-3.3	0.708
O=C1c2cc(O)c(O)cc2S(=O)(=O)C1c1ccccc1 (stereo unspecified)	.	-1.6	-2.6	.	3.2	99.0*	.
Cc1cc(C)nc(SCCN2CCOCC2)n1	.	7.9	-1.9	-1.0	9.7	-2.6	0.674
Cc1ccc(S(=O)(=O)CC(O)COc2ccc(F)cc2Cl)c(C)c1 (stereo unspecified)	i	-3.6	2.8	2.0	5.9	-7.1	0.669
CCOC(=O)c1cccc(NC(=O)C2CCN(S(=O)(=O)c3cnc[nH]3)CC2)c1	i	6.1	3.2	1.4	1.8	-32.7	0.703
COc1ccc([N+](=O)[O-])cc1Nc1c2ccccc2nc2ccccc12	i	6.6	-5.2	5.8	1.3	66.2	0.719
CCOc1cc(CNCc2cc(OC)cc(OC)c2)ccc1OC	i	-4.3	1.1	1.6	-1.4	-2.2	0.669
O=C(N/N=C/c1cccc(F)c1)c1cc(-c2ccco2)nc2ccccc12	.	-0.7	-40.5	.	6.6	4.3	.
CCC(C)NC(=O)CNC(=S)N(CCCN1CCOCC1)Cc1cccs1 (stereo unspecified)	.	-7.2	2.6	.	-2.0	2.6	.
O=C(Cn1nc(Cc2cccnc2)c2ccccc2c1=O)Nc1ccccc1F	i	-0.5	-2.4	4.5	15.7*	-4.8	0.73
CCS(=O)(=O)c1ccc2oc(SCC(=O)NCCc3ccc(OC)cc3)nc2c1	i	-5.9	0.5	-2.1	-6.7	.	0.702
N#CCc1c[nH]c2ccc([N+](=O)[O-])cc12	i	-0.7	-4.8	9.0	.	.	0.657
O=C(/C=C/c1ccc(F)cc1)NCCc1ccc2c(c1)OCCO2	i	1.1	-0.9	2.1	.	.	0.686
N/C(CN1CCCCC1)=N\S(=O)(=O)c1cc(Cl)cc(Cl)c1	i	1.8	1.8	3.1	-7.3	-4.6	0.627
O=C(O)c1ccccc1C(=O)c1ccc(Br)s1	i	-0.8	23.6	2.7	-0.9	-6.5	0.706
O=C1N(C2CCCC2)C[C@@H]2C[C@@H](c3cccn3-c3ccccn3)N3CCC[C@@]123	i	1.6	0.1	-0.9	2.9	-15.2	0.714
COC(C[C@@H]1O[C@@H]1[C@H](O)[C@H](C)OCc1ccccc1)OC	i	-1.4	-1.5	-1.9	.	.	.
[O-]/[N+](=C/c1ccc(F)cc1)c1ccc(Cl)cc1	.	5.0	-6.3	0.0	0.7	17.3	.
c1ccc(C2=NNC(=NC3CC3)SC2)cc1	.	5.1	-6.9	4.3	-1.3	72.7	0.676
CCN1CCN(S(=O)(=O)c2ccc(Cl)c(C(=O)NCc3ccco3)c2)CC1	i	0.7	-4.4	0.0	-5.1	-5.9	0.655

Structures listed so far printed as active in ALR H2O2 inh:
SMILES	B2AR ag	HNF4A DNA FP	UCH37 DUB inh	LANA-H2A inh	ALR H2O2 inh
O=C(O)CSc1nc(SCc2ccccc2Cl)nc2c1CCCC2	-6.3	-6.6	2.7	3.2	94.7*
O=C1c2cc(O)c(O)cc2S(=O)(=O)C1c1ccccc1 (stereo unspecified)	-1.6	-2.6	.	3.2	99.0*

(further entries)
SMILES	FGF22 binding	B2AR ag	HNF4A DNA FP	UCH37 DUB inh	LANA-H2A inh	ALR H2O2 inh	Ecoli growth
COc1c(/C=N/Nc2ccc(C(=O)O)cc2)c(CCN(C)C(C)=O)cc2c1OCO2	.	8.3	1.6	.	7.4	96.7*	.
O=C(NCCN1C(=O)S/C(=C\c2cccnc2)C1=O)C1=NN(c2ccccc2)C(=O)CC1	i	-2.5	-0.8	3.4	-2.5	-19.9	0.682
O=C(Nc1ccc2nsnc2c1)NC1CCCCC1	.	-7.3	-1.4	.	5.6	-2.5	.
CCN(CC)C(=O)/C(=C/c1ccc2c(c1)OCO2)NC(=O)c1ccc(Br)cc1	i	-0.7	1.0	4.9	-3.6	2.0	.
CCCCc1c(C)nc(N)[nH]c1=O	.	2.6	-2.9	1.6	-5.3	.	0.679
COC(=O)c1ccc(CN2CCC(CO)(Cc3cccc(OC)c3)CC2)cc1	i	2.8	-3.1	0.8	-5.1	.	0.652
CCOC(=O)C(=NCCOC)NNc1cc(Cl)ccc1Cl	i	-1.4	-4.9	-0.1	-2.0	.	0.67
Oc1ccc(Cl)cc1N=Cc1sc2ccccc2c1Cl	.	16.3	4.4	2.7	1.7	2.6	.
CC(Oc1ccc(C(=O)c2ccc(F)cc2)cc1)C(=O)N1CCOCC1 (stereo unspecified)	i	-11.8	0.3	5.7	-5.7	-2.6	0.717
CCOc1cc(-c2noc(N)c2C#N)cc(OCC)c1OCC	.	6.5	3.9	1.0	-3.4	-0.5	0.715
CCCCCn1c(=O)c(Cc2ccccc2)c(O)c2ccccc21	.	10.1	-1.2	-3.8	3.6	5.4	0.728
COc1cc2sc3cc(NCc4ccc5c(c4)OCO5)ccc3c(=O)c2cc1OC	i	6.0	0.0	-0.3	-7.7	0.4	0.761
CN(C)S(=O)(=O)N1CCC(Oc2ccc(C(=O)NCC(C)(C)CO)cc2)CC1	i	-2.9	-2.5	-4.0	4.0	-2.1	0.622
COc1ccc(/C=C(/Sc2nnc(-c3ccc(Cl)cc3)o2)C(=O)O)cc1	.	2.5	1.8	0.5	-1.2	-6.3	0.726
CN(C(=O)COC(=O)CCC1CCCCC1)c1c(N)n(Cc2ccccc2)c(=O)[nH]c1=O	i	0.0	-0.3	.	1.9	-0.4	.
C=CCNC(=O)C1CCN(c2ccc(S(=O)(=O)N3CCOCC3)cc2Cl)CC1	.	5.1	3.3	1.2	-3.1	-12.1	0.7
N#Cc1ccccc1OCC(=O)OCC(=O)c1c[nH]c2ccccc12	i	-0.4	-1.8	0.3	1.0	-1.7	0.673
COc1cc2cc(CN(CCCN3CCOCC3)Cc3nnnn3Cc3ccccc3)c(=O)[nH]c2cc1OC	i	-7.5	-4.4	-91.9	-6.8	.	0.651
Cc1cccc(N2CCN(Cc3nc(CC4CC4)no3)CC2)n1	i	-0.9	0.1	4.3	4.0	-2.8	0.72
O=C(NCc1cccs1)C(=O)c1cn(CC(=O)N2CCCC2)c2ccccc12	i	-2.8	1.0	2.4	4.6	-10.1	0.713
O=[N+]([O-])c1ccc(O)c(/C=N/n2c(CO)nc3ccccc32)c1	i	2.3	-0.1	.	1.7	-3.1	.
CCSc1nc(C)c(C)c(=O)[nH]1	i	-9.3	-0.4	0.0	.	.	0.643
Cc1c(C#N)c2ccccc2n1CC(=O)N1CCCC1	.	-1.7	-1.6	4.2	2.0	-5.2	0.734
O=C(CN1C(=O)c2ccccc2C1=O)N1CCN(C(=O)c2ccco2)CC1	.	-1.0	-0.2	-0.6	-5.8	-8.6	0.633
O=C(O)CCCNS(=O)(=O)c1ccc(NCc2ccccc2)c(C(=O)O)c1	.	-4.1	-4.3	-5.7	-8.8	-7.8	0.734
COc1ccccc1CNC(=O)C/C(C)=N/NC(=O)Cc1ccccc1	.	-5.8	-7.5	.	4.4	5.2	.
CC1CN(Cc2cnc(Cl)s2)CC(C)O1 (stereo unspecified)	i	-4.1	-3.9	1.0	.	.	0.726
O=C(N/N=C/c1cccnc1)c1ccc(NC(=O)c2ccc(F)cc2)cc1	i	-2.9	0.2	.	4.7	-4.5	.
NC(=O)COC(=O)c1ccc(-c2ccc(O)cc2)cc1	i	5.2	-0.3	-16.6	0.6	.	0.701
Cc1ccc(NC2CCCN(C(=O)c3ccccc3N3CCOCC3)C2)cc1C (stereo unspecified)	i	-1.7	3.2	3.4	7.3	99.2*	0.697
O=C(Nc1ccc(S(=O)(=O)N2CCCCC2c2cccnc2)cc1)c1ccccc1F (stereo unspecified)	i	-5.2	3.4	0.5	3.2	-9.4	0.683
Cc1ccc(SCC2=NNC(=O)C2)cc1	.	2.9	-3.5	1.9	-2.4	-24.4	0.726
COc1cccc(C(=O)NCCOc2cc(C)cc(C)c2)c1	.	17.1	0.0	-0.9	3.8	20.8	0.661
Cc1sc(NC(=O)C2C3CCC(O3)C2C(=O)O)c(C(=O)OC(C)C)c1-c1ccc(Cl)cc1 (stereo unspecified)	.	3.4	-2.0	2.6	8.3	61.2	0.77
Cn1ncc(Cl)c1C(=O)N1CCN(C(=O)c2ccco2)CC1	i	4.9	2.3	0.0	.	.	0.697
O=C(CN1C(=O)NC2(CCCC2)C1=O)OCc1ccccc1F	i	-2.5	-2.5	2.2	-4.0	0.7	0.682
CC(C)(C)n1nnnc1C(c1ccc(F)cc1)N1CCN(Cc2ccc3c(c2)OCO3)CC1 (stereo unspecified)	.	-1.9	-2.9	1.3	1.6	.	0.717

An excerpt, so the mix of outcomes need not match the whole.
